CFTR F508del – total CFTR protein upregulators, primary screen, cell-based, HeLa F508del-CFTR, immunofluorescence, viability (AID 1224863); HeLa F508del-CFTR, immunofluorescence total CFTR, 24 h; by the record results were divided by relative cell number; some inactives read as strong as hits; Cystic fibrosis transmembrane conductance regulator (Homo sapiens); calls, or highest fold increase where a dose series was run; 10,000 compounds, 0.1% hits; in the data nearly all actives have a first-pass fold increase above 1.5; a few of its hits are not listed in these tables;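 note: total CFTR protein by anti-CFTR immunofluorescence in fixed cells; first pass at 25 µM or 10 µg/mL by library and series up to twice that; 1 = untreated cells; first-pass hits also needed half or more of the cells alive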
CFTR F508del fold 25 µM – second read-out of CFTR F508del, no call of its own (marks repeat the call); fold increase; measured here: primary screen single dose 25 uM; library dosed in µM
CFTR F508del fold 10 ug/mL – recorded beside CFTR F508del, whose call it bears; fold increase; measured here: primary screen 10 ug/mL
CFTR F508del viability 25 µM – further read-out of CFTR F508del, marked with its call; viability, %; measured here: primary viability 25 uM; library dosed in µM;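 0% = killed and 100% = untreated cells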
CFTR F508del viability 10 ug/mL – recorded beside CFTR F508del, whose call it bears; viability, %; measured here: primary viability 10 ug/mL;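 0% = killed and 100% = untreated cells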
The depositor's hits bear a star; i = inactive; / = not tested or not shown; & = joins results of further samples.

SMILES	CFTR F508del	CFTR F508del fold 10 ug/mL	CFTR F508del viability 10 ug/mL	others
C[C@H]1O[C@H](O[C@H]2[C@H](O)[C@@H](O)[C@@H](O[C@H]3[C@H](O)[C@@H](O)C(O)O[C@@H]3CO)O[C@@H]2CO)[C@H](O)[C@@H](O)[C@@H]1N[C@H]1C=C(CO)[C@@H](O)[C@H](O)[C@H]1O (stereo partly drawn)	i	/	/	CFTR F508del fold 25 µM=1.1;CFTR F508del viability 25 µM=98
CCOC(=O)C1=C(C)NC(C)=C(C(=O)OC)C1c1cccc([N+](=O)[O-])c1 (stereo not drawn)	i	/	/	CFTR F508del fold 25 µM=0.92&0.99;CFTR F508del viability 25 µM=82&103
COc1cc(C(=O)NS(=O)(=O)c2ccccc2C)ccc1Cc1cn(C)c2ccc(NC(=O)OC3CCCC3)cc12	i	/	/	CFTR F508del fold 25 µM=0.86;CFTR F508del viability 25 µM=74
O=S(=O)(NC1CCN(C2CC2)CC1)c1ccc(C(F)(F)F)cc1	i	1	96
Cc1nc(CSCCC(=O)NC(C)(C)C)cs1	i	0.99	107
O=C(CN1C(=O)CSc2ccccc21)NOCc1ccccc1	i	0.98	102
O=C1c2cccc3cccc(c23)N1CN1CCN(c2ncccn2)CC1	i	1	92
O=S(=O)(c1ccc(N2CCc3ccccc3C2)nc1)N1CCCC1	i	0.69	74
C=CCNC(=O)NC(=O)CN1CCCCC1	i	1.1	71
CCOC(=O)c1c(C)oc2nc(CN3CCCC3c3cccs3)[nH]c(=O)c12 (stereo not drawn)	i	1.1	92
CC1CCN(c2ccc(S(=O)(=O)N3CCCCC3)cn2)CC1	i	0.98	90
CC(SCc1ccc(Br)cc1)C(=O)NC1=NCCS1 (stereo not drawn)	i	0.91	91
Cc1cc(N(C)C(C)C(C)C)n2ncnc2n1 (stereo not drawn)	i	1.1	104
CN1c2ccc([N+](=O)[O-])cc2CC(C#N)(c2nc3ccccc3s2)C12CCCCC2 (stereo not drawn)	i	1	111
C=C1C[C@H]2[C@@H]3C=C(C)C4=CC(=O)CC[C@]4(C)[C@H]3CC[C@]2(C)[C@@]1(OC(C)=O)C(C)=O	i	/	/	CFTR F508del fold 25 µM=0.96;CFTR F508del viability 25 µM=86
O=S(=O)(N1CCCCCC1)N1CCN(c2ncnc3sccc23)CC1	i	0.94	80
Cc1cnc(NC(=O)C2CC3CCCC(C2)C3=O)s1 (stereo not drawn)	i	0.93	98
O=C(OCc1nnc(-c2ccccc2)o1)c1cnc2n(c1=O)CCS2	i	1.1	105
CO/N=C(/C(=O)NC1C(=O)N2C(C(=O)O)=C(COC(N)=O)CSC12)c1ccco1 (stereo not drawn)	i	/	/	CFTR F508del fold 25 µM=1.1;CFTR F508del viability 25 µM=87
N#CC1(NC(=O)COC(=O)c2[nH]c3ccccc3c2Br)CCCC1	i	0.8	81
O=C(CCCc1cccs1)NC1CCCCCCC1	i	1.1	88
CN/C(=C/[N+](=O)[O-])NCCSCc1csc(CN(C)C)n1	i	/	/	CFTR F508del fold 25 µM=1;CFTR F508del viability 25 µM=94
COc1nc(N)nc2c1ncn2[C@@H]1O[C@H](CO)[C@@H](O)[C@@H]1O	i	/	/	CFTR F508del fold 25 µM=1.1;CFTR F508del viability 25 µM=96
COC(=O)c1cc([N+](=O)[O-])cn(CCOc2ccc(S(=O)(=O)N3CCOCC3)cc2)c1=O	i	0.9	96
CC(C)(C)NC(=O)CN1CCN(CC(=O)N(C2=CCCCC2)C2CC2)CC1	i	1.1	103
COc1ccc(-c2csc(Cc3csc(C)n3)n2)cc1F	i	0.92	83
N#CC1(NC(=O)CSc2nnc(-c3ccco3)n2C2CCCCC2)CCCC1	i	1	116
CO[C@H]1O[C@@H]2O[C@@]3(C)CC[C@H]4[C@H](C)CC[C@@H]([C@H]1C)[C@@]24OO3	i	/	/	CFTR F508del fold 25 µM=1.1;CFTR F508del viability 25 µM=94
Cc1nc(C)c2c(C)c(C(=O)NCCCOCC(C)C)sc2n1	i	1	99
CC(C)NC(=O)N(C)c1ccc(O)cc1	i	1.1	95
CN(C)CCc1c[nH]c2ccc(Cn3cncn3)cc12	i	/	/	CFTR F508del fold 25 µM=0.79&0.92;CFTR F508del viability 25 µM=60&124
CC(=O)N1CCc2cc(C(=O)C(C)OC(=O)C34CC5CC(CC(O)(C5)C3)C4)ccc21 (stereo not drawn)	i	0.94	103
CN(Cn1nc(-c2cccnc2)n(C2CC2)c1=S)C(c1ccccc1)c1ccccc1	i	1	92
O=C(O)Cc1nc2ncccn2n1	i	1	97
O=S(=O)(c1ccc(OC(F)(F)F)cc1)N1CCC(OCc2ccccc2)CC1	i	1.2	90
CCOC(=O)NC(=O)CN1C(=O)C(=O)N(CC(C)C)C1=O	i	1.1	100
O=c1oc2ccccc2n1CN1CCc2sccc2C1c1ccccc1 (stereo not drawn)	i	1	111
CSc1ccc(CN(C)Cn2[nH]c(/C=C/c3ccc(C)o3)nc2=S)cc1	i	1	99
CC(Sc1ncnc2sccc12)C(=O)NC1CCCC1 (stereo not drawn)	i	0.94	105
CCOC(=O)N1CCC(NS(=O)(=O)c2cc([N+](=O)[O-])ccc2C)CC1	i	1	95
CN1/C(=C/C(=O)COC(=O)c2c3c(nc4ccccc24)CCC(C(C)(C)C)C3)C(C)(C)c2ccccc21 (stereo not drawn)	i	1.1	97
CS(=O)(=O)c1ccc(NS(=O)(=O)c2ccc(OC(F)(F)F)cc2)cc1	i	0.98	106
Clc1ccc(CO/N=C(\Cn2ccnc2)c2ccc(Cl)cc2Cl)c(Cl)c1	i	/	/	CFTR F508del fold 25 µM=0.98&0.88;CFTR F508del viability 25 µM=92&93
NCc1ccc(S(=O)(=O)NCC2CCCO2)cc1 (stereo not drawn)	i	1.2	100
Cc1cccc2nc(CSc3ncccn3)cc(=O)n12	i	1	112
CN(C)CCC=C1c2ccccc2C=Cc2ccccc21	i	/	/	CFTR F508del fold 25 µM=0.67;CFTR F508del viability 25 µM=45
CC1(C)NC(=O)N(CCCC(=O)Nc2nc3c(s2)CCCCC3)C1=O	i	0.87	91
CC(C)(C)NCC(O)COc1ccccc1 (stereo not drawn)	i	0.97	94
Cn1c(C2CC2)nn(CN2CCN(c3ccccc3Cl)CC2)c1=S	i	1.1	92
O=C(O)CNC1CCS(=O)(=O)C1 (stereo not drawn)	i	1.1	107
Cc1ccc(S(=O)(=O)c2ccc(CSc3nnnn3C3CC3)cc2)cc1	i	0.92	84
NC(=O)C1CCN(CN2C(=O)C3CCCCC3C2=O)CC1 (stereo not drawn)	i	0.89	94
NC(=O)NC(=O)CSC1=NCCS1	i	1	102
CN(C)CCCN1c2ccccc2Sc2ccc(Cl)cc21	i	/	/	CFTR F508del fold 25 µM=0.59&0.76&0.69;CFTR F508del viability 25 µM=13&68&59
Fc1ccc(-c2noc(CSc3ncccc3Cl)n2)cc1	i	0.97	94
NCCCC(N)CC(=O)NCC1NC(=O)C(CO)NC(=O)C(N)CNC(=O)C(C2CCN=C(N)N2)NC(=O)/C(=C\NC(N)=O)NC1=O (stereo not drawn)	i	/	/	CFTR F508del fold 25 µM=1.2;CFTR F508del viability 25 µM=95
C[C@@H]1C(=O)O[C@H]2C[C@@]34[C@H]5C[C@@H](C(C)(C)C)[C@]36[C@@H](OC(=O)[C@@H]6O)O[C@@]4(C(=O)O5)[C@]21O	i	/	/	CFTR F508del fold 25 µM=0.96;CFTR F508del viability 25 µM=103
O=C(CC1C=CCC1)NC1CCCCC1 (stereo not drawn)	i	1.1	108
FC(F)(F)c1cnc(Sc2n[nH]c(-c3ccncc3)n2)c(Cl)c1	i	1.1	107
O=S(=O)(c1cc(F)cc(F)c1)N1CCc2sccc2C1	i	1.1	104

The list continues.
SMILES	CFTR F508del	CFTR F508del fold 10 ug/mL	CFTR F508del viability 10 ug/mL	others
COCCCNC(=O)c1cc([N+](=O)[O-])c[nH]1	i	1	95
Cn1cnc([N+](=O)[O-])c1Oc1cccc(Cl)c1	i	1.3	77
O=C(O)CCCc1ccccc1	i	/	/	CFTR F508del fold 25 µM=1.1&0.87;CFTR F508del viability 25 µM=106&88
Cc1nn(CN2CCN(C(=O)N(C)C)CC2)c(=S)n1C	i	1	106
CNc1ncccc1N	i	0.9	76
Cc1ccc([N+](=O)[O-])cc1S(=O)(=O)N(C1CC1)C(C)C1CC1 (stereo not drawn)	i	1.4	84
Cc1cc(-n2c(C)cc(C(=O)N(C)C3CCS(=O)(=O)C3)c2C)no1 (stereo not drawn)	i	1	100
CONC(=O)CCCc1nc2ccccc2s1	i	0.97	92
COc1ccc(OC)c(Nc2nc(C)nc3sc4c(c23)CCC4)c1	i	1.1	80
O=[N+]([O-])c1ccc(-c2ncn(CN(C3CC3)C3CCc4ccccc43)n2)cc1 (stereo not drawn)	i	1	92
Cc1c(C(=O)NCC2CC2)[nH]c2c1C(=O)CCC2	i	0.95	103
Fc1cc(Br)ccc1OCc1cc(-c2cccs2)on1	i	1	92

Brought forward from above: six entries, followed by the next part.
SMILES	CFTR F508del	CFTR F508del fold 10 ug/mL	CFTR F508del viability 10 ug/mL	others
Cc1cc(-n2c(C)cc(C(=O)N(C)C3CCS(=O)(=O)C3)c2C)no1 (stereo not drawn)	i	1	100
CONC(=O)CCCc1nc2ccccc2s1	i	0.97	92
COc1ccc(OC)c(Nc2nc(C)nc3sc4c(c23)CCC4)c1	i	1.1	80
O=[N+]([O-])c1ccc(-c2ncn(CN(C3CC3)C3CCc4ccccc43)n2)cc1 (stereo not drawn)	i	1	92
Cc1c(C(=O)NCC2CC2)[nH]c2c1C(=O)CCC2	i	0.95	103
Fc1cc(Br)ccc1OCc1cc(-c2cccs2)on1	i	1	92
Cc1nc(C2CC2)nc2sc(C(=O)N3CCCCC3C)c(C)c12 (stereo not drawn)	i	0.95	91
CC(=O)NCc1ccc(-c2csc(NC(=O)/C=C/c3cccs3)n2)o1	i	0.93	91
Nc1nc(CSC2=NCCS2)nc2ccccc12	i	0.96	98
CCCSc1nnc(-c2ccncc2)n1-c1ccc(CC)cc1	i	0.98	89
Cc1[nH]c(=O)[nH]c(=O)c1CCC(=O)NC1CCCC1	i	1.1	96
CN1CCN(CCC=C2c3ccccc3Sc3ccc(S(=O)(=O)N(C)C)cc32)CC1	i	/	/	CFTR F508del fold 25 µM=1.1;CFTR F508del viability 25 µM=79
COc1ccc(N2CCN(c3nn4cc(C(C)(C)C)nc4s3)CC2)cc1	i	1.1	89
CCOC(=O)C1=C(COC(=O)c2nn(-c3ccccc3)c(=O)c3ccccc23)NC(=O)NC1C (stereo not drawn)	i	0.94	93
O=C(N1CC=C(c2ccc(O)cc2)CC1)N1CC=C(c2ccc(O)cc2)CC1	i	0.97	88
COc1cc(Br)c(S(=O)(=O)N2CCc3ccccc32)cc1OC	i	1.1	95
O=C(NCCCC1CCCCC1)c1cnc2sccn2c1=O	i	1	99
CC1(C)CC2CC(C)(CN2CC(O)COc2ccccc2F)C1 (stereo not drawn)	i	1.1	112
O=C(CN1C(=O)NC2(CCCCC2)C1=O)Nc1nc(-c2cc(Cl)sc2Cl)cs1	i	1.2	100
O=S(=O)(c1cccc2nsnc12)N(Cc1ccc2c(c1)OCO2)C1CCCC1	i	1.1	81
c1ccc(COCCCNc2ccc3nnnn3n2)cc1	i	1	96
Fc1ccc(F)c(-c2csc(NCC3CCCO3)n2)c1 (stereo not drawn)	i	0.86	73
CCOC(=O)NC(=O)CSc1nnc(NC(C)(C)C)s1	i	1	96
CC(=O)c1c(C)[nH]c(C(=O)NCC(C)(C)N2CC(C)OC(C)C2)c1C (stereo not drawn)	i	1	113
CC(C)(C)OC(=O)N1CCN(C(=O)c2sc3sccc3c2Cl)CC1	i	0.95	78
O=S(=O)(c1ccc2c(c1)OCCO2)N(Cc1ccncc1)C1CC1	i	0.97	90
N#CCCN1CCN(S(=O)(=O)c2ccc(Br)cc2)CC1	i	1.1	98
Cc1ccc(-c2nc(Cn3ccnc3)co2)c(C)c1	i	0.9	81
Fc1ccc([C@@H]2CCNC[C@H]2COc2ccc3c(c2)OCO3)cc1	i	/	/	CFTR F508del fold 25 µM=0.99&0.88;CFTR F508del viability 25 µM=91&90
O=C(CN1CCCC1)NC1CCCCCC1	i	1	97
Cn1c(=S)n(CN2CCN(S(=O)(=O)Cc3ccccc3)CC2)c2ccccc21	i	1.1	113
O=S(=O)(NCCCN1CCOCC1)c1cc(Cl)sc1Cl	i	0.93	99
CCOC(=O)C1SC(SCc2cc(C(=O)OC)c(C)o2)=NC1=O (stereo not drawn)	i	1	99
O=C1NC(O)=NC1(c1ccccc1)c1ccccc1	i	/	/	CFTR F508del fold 25 µM=1&1.1;CFTR F508del viability 25 µM=86&85
N#Cc1ccc(Nc2ccc(CN3CCOC3=O)cc2)c([N+](=O)[O-])c1	i	0.93	91
Fc1cc(COc2ccc(-n3cnnn3)cc2)c2ncccc2c1	i	1.1	89
O=C1NC(c2ccccc2)(c2ccccc2)C(=O)N1CC(=O)N1CCc2ccccc21	i	1.1	82
COc1ccc(OC)c(CN(C2CC2)S(=O)(=O)c2cccs2)c1	i	0.92	76
Cn1nc(C(=O)Nc2ccc3c(c2)NC(=O)CS3)ccc1=O	i	1.1	105

Screening results deposited in PubChem by Southern Research Institute.

The list is partial (hit frequency here may not be typical).
